High-throughput results: PubChem, several laboratories
Env fusion inh – inhibitors of HIV Env-mediated cell fusion. inhibition, % at 12.3 µM. HeLa-JRFL Env/CEM21 cell fusion, luciferase. AID 651610. actives 1.1% (n = 360,000);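 active = mean replicate inhibition score of at least 50 and every replicate individually at or above 50; inconclusive = only one of the two criteria met; inactive = mean below 50 and not all replicates reaching 50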;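 note: 0% = plate neutral controls and 100% = maraviroc near 300 nM; one replicate is shown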
Yeast UUG start – modulators of start codon recognition fidelity in yeast. actives 0.13% (n = 350,000). S. cerevisiae UUG-firefly luciferase reporter, luminescence/redox ratio. activity score, % at 18.7 µM;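 active = replicate mean at a twofold rise or more, about +100% in these data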;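 note: firefly luciferase made from a UUG start codon reports start codon fidelity; reporter light over untreated wells divided by growth signal over untreated wells; some hits fall short of that in this replicate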
PABP FP inh – PABP-poly(A) binding inhibition; actives 1% (n = 290,000); PABP-poly(A) RNA binding, fluorescence polarization; P11940; inhibition, % at 35 µM;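 active = 50% or more with normal probe brightness, or confirmed in later tests; inconclusive = above 50% with abnormal brightness, or retests that disagree; inactive = below 50% or failed in later tests; about a fifth of its hits are not listed in these tables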;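 note: calls also rest on retests at 20 µM and on dose response follow-up; controls were probe without protein and protein plus probe with vehicle; some compounds called inactive have numbers as strong as hits; many hits fall short of the cut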
Target sequence (P11940 whole entry, looked up): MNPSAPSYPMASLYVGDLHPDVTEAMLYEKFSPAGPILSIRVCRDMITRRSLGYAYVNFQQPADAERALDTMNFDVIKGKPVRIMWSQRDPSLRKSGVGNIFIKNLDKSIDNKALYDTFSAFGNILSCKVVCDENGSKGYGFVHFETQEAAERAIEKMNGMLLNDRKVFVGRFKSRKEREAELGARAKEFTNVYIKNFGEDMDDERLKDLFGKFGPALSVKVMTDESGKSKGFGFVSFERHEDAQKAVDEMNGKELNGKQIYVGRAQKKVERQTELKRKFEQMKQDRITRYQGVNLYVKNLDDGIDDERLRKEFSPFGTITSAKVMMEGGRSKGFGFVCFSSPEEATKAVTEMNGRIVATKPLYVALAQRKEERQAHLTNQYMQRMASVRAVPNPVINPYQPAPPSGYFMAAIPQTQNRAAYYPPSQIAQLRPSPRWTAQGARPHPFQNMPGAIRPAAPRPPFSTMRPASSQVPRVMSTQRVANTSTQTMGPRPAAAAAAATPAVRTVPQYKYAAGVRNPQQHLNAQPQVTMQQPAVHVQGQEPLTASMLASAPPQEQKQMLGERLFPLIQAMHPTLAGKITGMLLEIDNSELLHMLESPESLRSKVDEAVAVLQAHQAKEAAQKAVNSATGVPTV
CSC inhib – blocks cancer stem cells; cancer stem cell-like cells viability, luminescence; inhibition, % at 7.5 µM; actives 1.1% (n = 300,000);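 active = mean at 75% or more and at least half the replicates too; inconclusive = mean and replicates disagree; tested in HMLE shEcad cells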;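 note: 0% = median of negative and 100% = median of positive control wells; the first replicate is given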
Rce1 inhib – inhibitors of yeast Ras-converting enzyme. actives 0.27% (n = 290,000). calls only. yeast membranes, quenched prenylated peptide cleavage fluorescence;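 active = fall in fluorescence gain of 50% or more versus controls, with final raw signal at or below 3038400; inconclusive = same 50% fall but final raw signal above 3038400; inactive = fall in fluorescence gain under 50%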;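 note: plate controls were neutral control wells for no effect and wells lacking membranes for full effect; tested at 10 µM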
MT1-MMP act inh – blocks activation of human MT1-MMP | P50281 | HT1080 RFP-PRO-GFP cells, GFP/RFP ratio fluorescence, overnight; percent of plate control window, DMSO zero | GFP/RFP ratio change, % at 20 µM | actives 0.061% (n = 360,000);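 active = GFP/RFP ratio change of at least 30% with cell ATP level not reduced by more than half and red fluorescence within 50% of control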; note: strong numbers were not always called active
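Assay system: HT1080 cells carrying an RFP-PRO-GFP reporter | Dosing: Single dose of 20 µM compound, 1% DMSO final | Incubation: Cells overnight before dosing, compound overnight, 37 °C, 5% CO2 | Evaluation: GFP/RFP fluorescence ratio | Control set: DMSO and RFP-L50D-GFP cell wells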
eIF4H inh – inhibitors of RNA binding by human eIF4H. Q15056. actives 0.94% (n = 290,000). AID 2012. inhibition, % at 35 µM. eIF4H fluorescence polarization binding assay;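 active = 50% or more with normal probe brightness, or confirmed in later tests; inconclusive = above 50% with abnormal brightness, or retests that disagree; inactive = below 50% or failed in later tests; about a fifth of its hits are not listed in these tables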;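 note: calls also rest on retests at 20 µM and on dose response follow-up; 0% = protein and probe with vehicle and 100% = probe without protein; strong numbers were not always called active; many hits fall short of the cut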
eIF4H inh retest – second read-out of eIF4H inh, no call of its own (marks repeat the call); inhibition, %; compound at 20 µM; confirmation average;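 mean of two retest wells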
PABP FP inh retest – also measured in PABP FP inh; calls as there; inhibition, %; compound at 20 µM; confirmation repeats;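 mean of two retest wells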
MT1-MMP act inh RFP – recorded beside MT1-MMP act inh, whose call it bears; RFP signal change, %; measured here: RFP expression control read;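 0 = vehicle wells; hits needed this value within 50% of zero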
* = called active by the depositor; i = inactive; ? = inconclusive; . = not tested or not shown; & = joins results of further samples. Rows were taken by chance, and some 3% of all compounds hit somewhere here.

SMILES	Env fusion inh	Yeast UUG start	PABP FP inh	CSC inhib	Rce1 inhib	MT1-MMP act inh	MT1-MMP act inh RFP	eIF4H inh	others
CC(=O)c1c(C)[nH]c(C(=O)OCC(=O)N2CCN(S(=O)(=O)c3ccc(C)cc3C)CC2)c1C	.	-2	2	-3	i	4	-7	-2
CC(=O)OC(C(=O)NCc1ccc2c(c1)OCO2)c1ccccc1Cl (stereo unspecified)	-91	-13	6	.	i	6	2	6
Cc1cc2oc3ccc(NCCCn4ccnc4)cc3c(=O)c2cc1C	-132	-15	.	56	i	-26	-3	.
COc1cc(/C=C/C(=O)N2CCOCC2)ccc1OCc1ccccc1	-17	17	1	-2	i	0	0	-9
CCOC(=O)c1c(-c2ccccc2)csc1NC(=O)CCN1C(=O)c2ccccc2C1=O	-23	4	2	55	i	-2	1	-16
O=S(=O)(c1ccc2c(c1)C(O)c1ccccc1CC2)C(F)(F)F (stereo unspecified)	11	-7	.	5	.	11	-9	.
COc1ccc(CNC(=O)CSc2nnnn2Cc2ccccc2)cc1	-126	-13	-5	-12	i	0	0	-6
COc1ccc(OC)c(Nc2nc(-c3cccs3)cs2)c1	-24	-7	13	39	i	-19	-3	3
O=C(O)CCC(=O)N1CCN(c2nc3ccccc3s2)CC1	.	-9	-6	-11	i	0	1	-10
O=C(Nc1ccccc1)c1ccccc1OCc1cccc([N+](=O)[O-])c1	7	.	0	-2	i	0	-2	-8
COC(=O)CCCC1=CC2=C(c3ccccc3)C(=O)C(C)(OC(=O)C3CCCC3)C(=O)C2=CN1Cc1ccc2c(c1)OCO2 (stereo unspecified)	-50	5	6	15	i	-10	3	3
O=C(Nc1ccsc1C(=O)O)c1ccc(Cl)cc1	-33	-18	22	-11	i	0	3	-9
N#Cc1c(/N=C/c2cc(Br)cs2)sc2c1CCC2	-15	-19	.	3	.	-3	0	.
CC1CN(C(=O)Cn2cnc3c2c(=O)n(C)c(=O)n3C)CC(C)O1 (stereo unspecified)	.	-8	2	-7	i	-5	2	-4
N#Cc1c(NC(=O)CCC(=O)O)sc2c1CCCC2	.	-11	1	-14	i	0	3	6
COCCn1c(CN2CCN(c3ccc(OC)cc3)CC2)nc2c1c(=O)n(C)c(=O)n2C	30	-9	-2	-15	i	10	-7	5
CCCC(=O)NC(Nc1cc(C(F)(F)F)ccc1Cl)C(Cl)(Cl)Cl (stereo unspecified)	-2	.	14	20	i	-2	-3	-3
O=C(Nc1ccccc1)c1ccco1	-1	-21	0	-6	i	-1	0	-6
O=C(CCCN1C(=O)/C(=C/c2ccco2)SC1=S)Nc1ccccc1	-5	-26	18*	33	i	12	19	77	eIF4H inh retest=4;PABP FP inh retest=52*
CN(CC(=O)Nc1cccc(F)c1)C(=O)CN1C(=O)NC2(CCCCC2)C1=O	-4	.	.	-10	i	4	3	.
CC(OC(=O)c1ccc(S(=O)(=O)N2CCOCC2)cc1)c1ccccc1 (stereo unspecified)	-23	-3	.	-12	i	0	2	.
Cc1ccc(S(=O)(=O)N2CCOCC2)cc1C(=O)Nc1c(C)n(C)n(-c2ccccc2)c1=O	-131	-9	7	-13	.	.	.	-1
COc1ccc([N+](=O)[O-])cc1NC(=O)CC(C)c1ccccc1 (stereo unspecified)	.	-10	-2	8	i	7	3	4
O=C(Nc1c[nH]c(=O)[nH]c1=O)c1ccc2c(c1)C(=O)N(c1cccc([N+](=O)[O-])c1)C2=O	-2	4	8	.	i	3	5	45
Cc1sc2nc(SCC(=O)c3cc(C)n(CC4CCCO4)c3C)n(C(C)C)c(=O)c2c1C (stereo unspecified)	-125	-8	81*	8	i	-1	-3	65*
C[C@@H]1CN([C@H](C)CO)C(=O)c2cc(NC(=O)Nc3ccc(F)cc3)ccc2O[C@@H](C)CCCCO[C@H]1CN(C)Cc1ccc(C(=O)O)cc1	-3	4&5	.	.	.	4	5	.
CCOc1ccc(NC(=O)CCC(=O)NNC(=O)NC2CCCCC2)cc1	-11	-1	4	-7	i	3	5	-4
COc1ccc(N2C(=O)CCC(C(=O)N3CCC(C(N)=O)CC3)C2c2ccc(F)cc2)cc1 (stereo unspecified)	6	-7	-5	-6	i	0	3	-8
Cc1nnc(SCC(=O)Nc2cccc(S(=O)(=O)N(C)c3ccccc3)c2)s1	?	.	13	12	i	-4	-22	-4
Cc1c(C(=O)NCc2cccnc2)sc2nc(-c3ccccc3)cn12	.	-8	-4	71	i	0	-2	-2
COc1ccc(/C=C/C(=O)O/N=C(\N)c2ccccn2)cc1OC	.	-25	.	-2	.	3	4	.
Cc1ccc2oc(C(=O)NCc3ccccc3)cc(=O)c2c1	-25	-13	3	-27	i	-1	0	-4
C/C(=N\NC(=O)c1cc(-c2ccc(Cl)s2)[nH]n1)c1ccncc1	4	-3	-3	7	i	3	3	0
COc1ccc(NC(=O)N/C=C/c2ccccc2)cc1	-38	.	-11	-19	i	1	0	-7
CCCCOc1ccc(CN(C)c2ncnc(N)n2)cc1	-1	-11	11	11	i	0	-8	-6
CC1(C(=O)NS(=O)(=O)c2cccc(C#N)c2)CCN1C(=O)c1ccc(C2CCCCC2)cc1 (stereo unspecified)	-15	-4	.	.	.	4	7	.
O=C(CC1C(=O)NCCN1Cc1ccccc1C(F)(F)F)NCCN1CCOCC1 (stereo unspecified)	-3	-7	16	-17	i	1	6	34
O=C(CSc1nc2ccccc2[nH]1)Nc1ccc(F)cc1	4	-16	-3	10	i	2	-4	5
O=C(c1cc2ccccc2o1)N1CCN(Cc2ccccc2)CC1	-5	-2	6	-15	i	-2	-2	-6
CC(C)c1ccccc1NC(=O)CNCCc1ccc(C(F)(F)F)cc1	25	.	10	3	i	-8	-3	-6
N#Cc1c(-c2ccccc2)nc2n(-c3ccccc3)nc(C(=O)Nc3ccccc3)n2c1=O	.	-18	-2	-3	i	-2	-2	-1
C=CCn1c(SCc2nc3c(c(=O)[nH]c(=O)n3CCCC)n2CCC)nnc1-c1ccccc1	.	-9	7	-17	i	2	-2	-2
O=C1Nc2cc(C(=O)NCCCN3CCOCC3)ccc2S/C1=C/c1cccc(Cl)c1	2	-6	-7	8	i	.	.	-6
CN(C)c1ccc(CN(CC2CCCO2)C(=O)c2cc3ccccc3o2)cc1 (stereo unspecified)	6	-12	.	.	.	-5	-4	.
COCCCn1c(C(=O)N2CC(C)OC(C)C2)cc2c(=O)n3cccc(C)c3nc21 (stereo unspecified)	.	-17	-3	6	i	8	6	-9
CCN(CC)Cc1c(O)ccc2c(=O)c(-c3ccc4c(c3)OCCO4)coc12	.	-9	19	-17	i	-5	-6	-9
Cc1c(NS(C)(=O)=O)c(=O)n(-c2ccccc2)n1C	-8	-13	2	3	i	0	0	0
Cc1ccc(S(=O)(=O)N(Cc2cccc([N+](=O)[O-])c2)C(=O)N2CCN(C)CC2)cc1	0	.	.	.	i	1	2	.
CCNC(=O)NC(=O)COC(=O)CCc1nc(=O)c2ccccc2n1C	-1	.	13	-10	i	1	4	-1
O=C1C=C(c2ccc3c(c2)OCO3)C[C@@H](c2ccc(Cl)cc2)C1	-29	-23	.	51	.	3	2	.
CCOC(=O)Cc1csc(NC(=O)c2ccc3c(c2)OCO3)n1	-77	-8	-6	-10	i	1	1	-5
C=CC(=O)NC(NC(=O)C=C)c1ccccc1F	-30	-12	0	-17	i	-1	-3	7
COc1ccc(C(=O)/C(=C\c2sccc2C)c2nc3ccccc3o2)cc1	.	.	16	-6	.	.	.	4
COc1ccccc1N1CCN(C(=O)c2cccc(Oc3ccccc3)c2)CC1	-5	5	11	1	i	-4	-2	-6
Cc1[nH]c2ccc(-c3nnc(SCC(=O)N4CCCc5ccccc54)o3)cc2c1C	.	-17	-1	12	i	-9	-1	3
CC1(C)Cc2c(sc(NC(=O)C(=O)N3CCCC3)c2C(N)=O)CO1	-2	.	-7	7	i	2	2	-37
COc1cccc(NC(=O)c2ccnc(N3CCC(C(=O)NCc4ccccc4OC)CC3)c2)c1	-26	-3	-6	-17	i	14	-4	4
CCCCn1c(N)c(-c2nc3ccccc3s2)c2c([N+](=O)[O-])nn(C)c(=O)c21	-10	-8	-12	9	i	3	-2	-16
CCc1ccc(NC(=O)c2ccc(F)c(S(=O)(=O)NCC3COc4ccccc4O3)c2)cc1 (stereo unspecified)	36	.	11	3	i	-2	-24	0
O=C(/C=C/c1cccc([N+](=O)[O-])c1)c1cccs1	9	-18	4	37	i	-9	-7	-3

The results go on:
SMILES	Env fusion inh	Yeast UUG start	PABP FP inh	CSC inhib	Rce1 inhib	MT1-MMP act inh	MT1-MMP act inh RFP	eIF4H inh	others
Cc1ccc(Cl)cc1NC(=O)COC(=O)CSc1ccccc1	13	-20	.	-6	.	4	7	.
O=C(Nc1ccc(C(=O)N2CCCC2)cc1)c1cccc(C(F)(F)F)c1	-3	-14	0	5	i	3	2	7
Oc1ccccc1Nc1nc(NCc2ccco2)c2ccccc2n1	9	.	-8	.	i	3	-13	-15
CCc1nc2ccc(C(=O)NCCN3CCOCC3)cn2c1N(C=O)Cc1ccc(OC)cc1	-3	-13	.	.	.	3	8	.
COc1cc(NC(=O)c2sc3ncn(CC(=O)N4CCCCC4)c(=O)c3c2C)cc(OC)c1OC	-3	17	-12	13	i	7	9	-2
C=CCNc1nc2ccccc2c(=O)[nH]1	9	-11	5	-4	i	1	5	0
